H5N1 antiviral = MDCK cell protection from H5N1 avian flu. cytopathic effect, luminescence, 72 h; stronger effect = higher value; no value below 0 was filed and about half of the inactive calls have no number; reference of the scale not given here. inhibition, % at 50 µM. 96,000 compounds, 0.07% hits. AID 740; in the data active means inhibition above about 25%
* hit, by the source's call; i = inactive. This is a subset; rates above refer to the full screens.

canonical_smiles	H5N1 antiviral
COc1cc(C2c3c(-c4ccccc4)n[nH]c3C(=O)N2c2ccc(C(=O)O)cc2)ccc1O (stereo unspecified)	3.0
Cc1cccc2cc(CN(Cc3ccco3)C(=O)Nc3cccc(C#N)c3)c(Cl)nc12	i
COc1ccc(OC)c(NS(=O)(=O)Cc2ccccc2)c1	1.7
Cc1cc(C)c2nc3c(c(C(=O)O)c2c1)CCC3	0.8
O=S(=O)(c1ccc2ccccc2c1)N(CC(O)COCc1ccco1)c1ccccc1 (stereo unspecified)	1.7
COc1ccc(NS(=O)(=O)c2ccc(N)c(C(=O)O)c2)cc1	0.1
CN(CC(=O)N1CC=C(c2ccccc2)CC1)S(=O)(=O)c1cnc[nH]1	i
O=C(Nc1nc(-c2ccccc2)cs1)C1CCCN(S(=O)(=O)c2cccc([N+](=O)[O-])c2)C1 (stereo unspecified)	i
COc1cccc(NC(=O)CCCOc2cc(=O)n(C)c3ccccc23)c1	1.1
CC(C(=O)OCn1nnc2ccccc2c1=O)N1C(=O)c2ccccc2C1=O (stereo unspecified)	i
CCn1c(CNC(=O)COc2ccc(C(C)C)cc2)nnc1SCC(=O)Nc1ccccc1	i
COc1cccc(N(CC(=O)NC(C)c2ccccc2)S(C)(=O)=O)c1 (stereo unspecified)	0.2

Molecules listed so far with an aryl methoxy group, in the order listed:
canonical_smiles	H5N1 antiviral
COc1cc(C2c3c(-c4ccccc4)n[nH]c3C(=O)N2c2ccc(C(=O)O)cc2)ccc1O (stereo unspecified)	3.0
COc1ccc(OC)c(NS(=O)(=O)Cc2ccccc2)c1	1.7
COc1ccc(NS(=O)(=O)c2ccc(N)c(C(=O)O)c2)cc1	0.1
COc1cccc(NC(=O)CCCOc2cc(=O)n(C)c3ccccc23)c1	1.1
COc1cccc(N(CC(=O)NC(C)c2ccccc2)S(C)(=O)=O)c1 (stereo unspecified)	0.2

The list goes on:
canonical_smiles	H5N1 antiviral
N#Cc1nc(-c2ccco2)oc1N1CCC(C(N)=O)CC1	3.1
Cc1cc(SCC(=O)NC(=O)NCc2ccco2)nc2c(C)cccc12	i
Cn1ncc2c(Nc3cccc(C(=O)O)c3)ncnc21	1.2
COCNc1nc(OCC#N)nc(N(C)C)n1	i
O=C(/C=C/c1ccc(Br)o1)OCc1ccccc1	i
O=C(OCn1nnc2ccccc2c1=O)C1COc2ccccc2O1 (stereo unspecified)	0.0
CCOc1ccc(C(=O)Nn2cnnc2)cc1	0.3
CCc1ccc(OCC(=O)Nc2cc(S(=O)(=O)CC)ccc2O)cc1	0.9
N#CC1=C(N)OC2=C(C(=O)CCC2)C1c1ccc(OC(=O)N2CCOCC2)cc1 (stereo unspecified)	i
COc1ccc(C2N=C(N)N=C(N)N2c2ccccc2)cc1OC (stereo unspecified)	i
COc1cc2c(cc1NC(=S)Nc1cccc(C(F)(F)F)c1)oc1ccccc12	19
COc1ccc(N2C(=O)[C@@H]3Cc4ccccc4CN3C2=O)cc1	i
COc1ccc(CCNC(=O)NC23CC4CC(CC(C4)C2)C3)cc1OC	1.2
CC(C)C1N=C(c2ccc3c(c2)OCO3)CC(c2ccccc2O)N1 (stereo unspecified)	2.8
Cc1ccc(S(=O)(=O)N2CCCC(C(=O)NCCC3=CCCCC3)C2)cc1 (stereo unspecified)	0.4
CC(=O)c1cccc(N(C(=O)c2ccccn2)C(C(=O)NC2CCCCC2)c2cccs2)c1 (stereo unspecified)	1.9
CCOC(=O)N/N=C/c1ccccc1F	i
O=C(NCCc1ccccc1)c1noc2c1CCc1ccccc1-2	1.0
CC(C)(C)c1ccc(C(=O)Nc2ccc(N3CCOCC3)cc2)cc1	0.1
Cc1c(NC(=O)CC(O)(C(F)(F)F)C(F)(F)F)c(=O)n(-c2ccccc2)n1C	0.1
CCCCCC(=O)Nc1nc(C)c(-c2csc(Nc3ccccc3OC)n2)s1	i
CC(=O)Nc1ccc(S(=O)(=O)Nc2cccc(N(C)S(C)(=O)=O)c2)cc1	0.8
CN(C(=O)c1ccc(S(=O)(=O)N2CCCC2)cc1)C1CCCCC1	i
O=C(O)c1ccc(COc2ccc(CO)cc2Cl)cc1	0.1
COC(=O)C(NC(C)=O)(Nc1nc2c(s1)CCCC2)C(F)(F)F (stereo unspecified)	i
CCCCCCn1c(N)c(C(=O)NCCN2CCOCC2)c2nc3ccccc3nc21	i
Cc1ccc(S(=O)(=O)NCCn2c(C)cc3ccccc32)cc1	0.6
COc1ccc2c(C)cc(N3CCN(c4ccc(F)cc4)CC3)nc2c1	i
COc1ccc(-c2c3c(nc4sc5c(Cl)nc(C)nc5c24)CCC3)cc1	1.3
Cc1ccc2[nH]c3c(c2c1)CN(C(=O)CN(C)CC1OCCO1)CC3	0.1
O=C1NCCCc2nc(Oc3ccccc3)sc21	0.2
COC(=O)c1ccc(NC(=O)Nc2ccc(C)cc2)cc1	i
Cc1noc(NS(=O)(=O)c2ccc(NC(=O)CSc3nc4c(cc3C#N)CCCC4)cc2)c1C	3.3
CCN(c1ccc(C(O)(C(=O)OC)C(F)(F)F)cc1)S(=O)(=O)c1ccc(C)cc1 (stereo unspecified)	1.1
COc1ccc(Oc2nc3ccccc3n(C)c2=O)cc1	i
CCc1ccccc1NC(=O)CN(C)S(=O)(=O)c1ccc2c(c1)c(=O)n(C)c(=O)n2C	0.9
OCCCc1nc2n(n1)C(c1ccccc1)C=C(c1ccccc1)N2 (stereo unspecified)	0.9
CC(C)NC(=O)NC(=O)CSc1nnc(COc2ccccc2F)n1C(C)C1CC2CCC1C2 (stereo unspecified)	i
O=C(c1ccccc1)N1CCN(c2ccc(NCc3ccc4c(c3)OCO4)cc2)CC1	i
O=c1oc2ccccc2n1Cn1c(=O)oc2ccccc21	i
Cc1ccccc1C(O)c1ccncc1 (stereo unspecified)	0.9
CCOc1ccc(Cn2ccnc2CCl)cc1[N+](=O)[O-]	i
Cc1cc(C)c2[nH]c(=O)c(CN(C(=O)C3CCCO3)C3CCCC3)cc2c1 (stereo unspecified)	0.1
O=C1NC(c2ccccc2)C(C(=O)c2cccs2)=C1O (stereo unspecified)	0.5
COc1ccc(N(CC(=O)NN=C2CCCCCCC2)S(=O)(=O)c2ccccc2)cc1	0.3
Cc1ccccc1-c1nnc(SCc2ccc(F)cc2)o1	i
CCOc1cc(CNCC2CCCO2)cc(Br)c1OCC(N)=O (stereo unspecified)	1.1
Cc1ccc(C(=O)Nc2onc(C)c2C#N)cc1	0.0

Grouped by structure: those above containing a COOH group (5)
canonical_smiles	H5N1 antiviral
COc1cc(C2c3c(-c4ccccc4)n[nH]c3C(=O)N2c2ccc(C(=O)O)cc2)ccc1O (stereo unspecified)	3.0
Cc1cc(C)c2nc3c(c(C(=O)O)c2c1)CCC3	0.8
COc1ccc(NS(=O)(=O)c2ccc(N)c(C(=O)O)c2)cc1	0.1
Cn1ncc2c(Nc3cccc(C(=O)O)c3)ncnc21	1.2
O=C(O)c1ccc(COc2ccc(CO)cc2Cl)cc1	0.1

Further structures.
canonical_smiles	H5N1 antiviral
CC(C)(C)C(=O)c1cnc(Nc2ccccc2)s1	i
CCC(Sc1ccc(C(=O)O)cc1)C(=O)O (stereo unspecified)	i
C1=C(c2ccccc2)N2CCN=C2S1	i
CC1=C(C(=O)Nc2cccnc2)C(c2ccc3c(c2)OCO3)C2=C(CCCC2=O)N1 (stereo unspecified)	i
Cc1nnc(NC(=O)CSc2nnc(CNC(=O)c3ccccc3)n2-c2ccccc2)s1	2.6
CCC(CC)C(=O)NCCc1ccc(S(N)(=O)=O)cc1	0.8
CCC(C)NC(=O)CC(c1ccc(OC)cc1)n1cccc1 (stereo unspecified)	i
CC(=O)Nc1ccc(SC(C)C(=O)NC(N)=O)cc1 (stereo unspecified)	i
COc1ccc(CCNC(=O)Cc2ccc(OCc3ccccc3)c(OC)c2[N+](=O)[O-])cc1OCc1ccccc1	0.7
COc1ccc(-c2nn(-c3ccccc3)cc2CO)cc1	1.3
CC(C)Cc1oc(C(=O)O)cc1CN	i
COc1ccccc1-c1cc(C(=O)N/N=C/C=C/c2ccccc2[N+](=O)[O-])c2ccccc2n1	0.3
CN=C1SC(CC(=O)Nc2ccccc2F)C(=O)N1C (stereo unspecified)	0.4
O=C(CSc1ccc2nnc(-c3ccccn3)n2n1)Nc1ccc2c(c1)OCCO2	1.5
CCCN(CCO)CCCc1ccccc1	0.3
COCCCNC(=O)/C=C/c1ccc(Cl)cc1Cl	i
COCCn1c(C)cc(C(=O)CSc2nc3ccccc3o2)c1C	0.1
CCOC(=O)CSc1nnc(CNC(=O)c2ccc(OC)cc2)n1C1CCCCC1	i
COc1ccc(NC(=O)Cn2c(=O)sc3ccccc32)cc1	1.4
Fc1cccc(-n2c(-c3ccco3)nc3nc4ccccc4nc32)c1	i
COc1ccc(/C(O)=C2\C(=O)C(=O)N(CCN(C)C)C2c2cc(OC)c(OC)c(OC)c2)c(C)c1 (stereo unspecified)	0.3
CCC(=O)Nc1ccc(S(=O)(=O)Nc2cccc(C)c2)cc1OC	0.5
O=C(Nc1ccccc1C(=O)NCC1CCCO1)c1ccc(Cl)cc1Cl (stereo unspecified)	i
O=C(Nc1ccccc1)N1CCN(Cc2ccc3c(c2)OCO3)CC1	i
COc1cc2c(cc1OC)C(COc1ccc(F)cc1)N(C(=O)c1ccco1)CC2 (stereo unspecified)	i
COc1ccccc1N1CCN(CC(=O)c2c(C)[nH]c3ccccc23)CC1	0.3
CC1(C)CC(=O)C2=C(C1)Nc1ccccc1N=C2	0.8
CC1(C)C(=O)OC(c2cccs2)C(C)(C)C1=O (stereo unspecified)	0.2
CCn1c2ccccc2c2cc(NC(=O)CSc3nnc(-c4ccc(OC)c(OC)c4)n3N)ccc21	1.3
CC1(C)CC(OC(=O)c2ccco2)CC(C)(C)N1O	0.1
Cc1cccc(NC(=O)c2ccccc2NC(=O)Cc2ccccc2)c1C	i
CCOC(=O)CN1CC23C=CC(O2)C(C(=O)NCc2cccs2)C3C1=O (stereo unspecified)	0.2
O=C(c1ccccc1)N1CCN(CC#CC2(O)CCCCC2)CC1	1.1
COc1ccc(C2c3c(oc4ccc(C)cc4c3=O)C(=O)N2c2cc(C)ccn2)cc1OC (stereo unspecified)	0.5
CCN1CCN(CCNC(=O)CS(=O)(=O)Cc2nc(-c3ccc(C)cc3)oc2C)CC1	0.8
O=c1c([N+](=O)[O-])c(N2CCCCC2)c2ccccc2n1-c1ccccc1	i
COc1ccc(C2CC(c3c(O)cc(C)oc3=O)=NCCS2)c(OC)c1 (stereo unspecified)	i
COc1ccc(S(=O)(=O)Nc2cc(Sc3ncn[nH]3)c(O)c3ccccc23)cc1	i
CCOC(=O)C1C(=O)NC(N2CCCCC2)=NC1C(C)C (stereo unspecified)	i
Cc1ccccc1NC(=O)C(C)O/N=C/c1cccc([N+](=O)[O-])c1 (stereo unspecified)	0.7
O=C(c1ccco1)N1CCC(c2nc(-c3ccc(F)cc3)no2)CC1	i
CNC(=O)c1cc2cccc(OC)c2oc1=O	i
CNC(=O)c1cc2cc(OC)ccc2oc1=N	0.3
COC(=O)CSc1nnc(-c2ccoc2C)n1-c1ccc(C)cc1	i
COC(=O)c1cn(NC(=O)C2COc3ccccc3O2)c(=O)c2ccccc12 (stereo unspecified)	i
CCC(=NCC1CCCO1)c1c(O)n(-c2ccccc2)c(=O)[nH]c1=O (stereo unspecified)	1.1
O=C(CSc1nc2ccccc2[nH]1)c1ccc2c(c1)OCO2	i
O=C(O)CN1C(=O)CC(Cc2ccc(Cl)cc2)C1=O (stereo unspecified)	i

Shown field by field: entries from further up.
COc1ccc(C2CC(c3c(O)cc(C)oc3=O)=NCCS2)c(OC)c1 (stereo unspecified)
- H5N1 antiviral = i
COc1ccc(S(=O)(=O)Nc2cc(Sc3ncn[nH]3)c(O)c3ccccc23)cc1
- H5N1 antiviral = i

(further entries)
canonical_smiles	H5N1 antiviral
Cc1cccc(NC(=O)CSc2nnc(-c3ccco3)c(-c3ccco3)n2)c1C	0.8
N#CC1=C(N)Oc2n[nH]c(-c3ccc(F)cc3)c2C1c1ccncc1 (stereo unspecified)	i
CC1(C)C(C=C(Cl)Cl)C1C(=O)N1CCN(c2ccccc2)CC1 (stereo unspecified)	0.7
COc1ccc2cc3cc(C(=O)NCc4ccc5c(c4)OCO5)oc3nc2c1	i
O=C(Nc1ccccc1Cl)ON=C1c2ccccc2-c2ccccc21	0.0
CC(Sc1nc(NCc2ccccc2)nc(N2CCOCC2)n1)C(=O)Nc1ccccc1 (stereo unspecified)	0.3
CCCc1nnc(NC(=O)CCC(=O)N2CCN(CCOc3ccc(C)cc3)CC2)s1	i
C=CCOC(=O)C1=C(C)NC(SCC(=O)OCC)=C(C#N)C1c1ccc(C)cc1 (stereo unspecified)	0.8
COc1cc2cc(C(c3nnnn3C(C)(C)C)N3CCc4ccccc43)c(=O)[nH]c2cc1OC (stereo unspecified)	i
Cc1cc(C(=O)COC(=O)C2=NNC(=O)CC2)c(C)n1-c1ccc(OC(F)F)cc1	1.5
O=C(c1cc2cc(Cl)ccc2oc1=O)N1CCCC1	i
COC(=O)/C(=C\c1c[nH]c2ccccc12)NC(C)=O	i
CC(=O)NC(CCS(C)(=O)=O)C(=O)Nc1c(F)cccc1F (stereo unspecified)	0.4
COc1cc2[nH]c(=O)n(CCCC(=O)N3CC=C(c4ccccc4)CC3)c(=O)c2cc1OC	1.3
NC(=O)c1c(NC(=O)CSc2nnc(Cc3ccccc3)n2Cc2ccco2)sc2c1CCC2	27*
